Screening data deposited in PubChem by National Center for Advancing Translational Sciences (NCATS).
TRPML1 agonist: activates the human TRPML1 channel; Q9GZU1; TRPML1-expressing cells, Ca2+ dye fluorescence, FDSS; host cell line not named in the record; reference of the full effect not given here; activation, % (no concentration beside the values); actives 0.12% (n = 410,000); in the data active = activation above about 50%; inconclusive = about 30% to 50%; inactive = below about 30%; note: 0% is about no effect; the text of the record puts the active cut at 80%
Target sequence (Q9GZU1 whole entry, looked up): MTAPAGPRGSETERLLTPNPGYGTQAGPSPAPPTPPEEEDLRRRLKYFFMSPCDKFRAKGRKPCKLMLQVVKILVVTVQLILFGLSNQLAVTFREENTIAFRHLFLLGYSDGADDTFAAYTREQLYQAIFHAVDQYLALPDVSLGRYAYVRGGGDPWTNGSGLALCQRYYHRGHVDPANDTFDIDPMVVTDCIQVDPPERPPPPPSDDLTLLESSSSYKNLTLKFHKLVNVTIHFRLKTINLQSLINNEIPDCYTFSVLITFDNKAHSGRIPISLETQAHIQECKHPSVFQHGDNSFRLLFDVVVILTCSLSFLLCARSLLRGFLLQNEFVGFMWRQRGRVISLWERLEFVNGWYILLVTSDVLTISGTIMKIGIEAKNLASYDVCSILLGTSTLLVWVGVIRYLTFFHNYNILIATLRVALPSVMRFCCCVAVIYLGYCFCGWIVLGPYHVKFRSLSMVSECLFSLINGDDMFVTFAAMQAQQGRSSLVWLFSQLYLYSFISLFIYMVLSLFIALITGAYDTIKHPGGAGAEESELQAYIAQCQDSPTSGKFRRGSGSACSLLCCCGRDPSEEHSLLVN
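Agonist activity was taken from a 110 s kinetic Ca2+ dye read on the FDSS after pinning compounds onto TRPML1-DL cells. The cells were seeded at 1,500/well with Tet inducer, incubated about 16 h, then dye-loaded at room temperature.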
PINK1 modulator: PINK1 expression modulation; PINK1 immunofluorescence, high-content cytometry, 24 h; Potency, µM (doses to about 76.6 µM), inactives show at the highest dose activation (PINK1 increase), actives largely listed as activators; actives 0.2% (n = 410,000); AID 624263; active = well fitted activation curve with a large enough effect; inconclusive = small, poorly fitted or top-dose-only effect; inactive = flat fitted curve, though single readings scatter; cell line not stated here;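 note: potency is the fitted concentration of half-maximal effect; % of control where 0% means no effect; nearly all actives have a fitted effect of over 65% in size; a mitochondrial uncoupler was the plate control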
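PINK1 protein, normally rapidly degraded, was detected by immunofluorescence after 24 hour compound treatment of a stable cell line. Titration data (5 concentrations) came from laser-scanning cytometry, with CCCP-treated wells as controls.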
CtBP-E1A inh: inhibitors of CtBP/E1A interaction; AlphaScreen GST-E1A/His-CtBP binding, 1536-well; hits give low values; control for the full effect not named in the record; activity change, % (test concentration not listed); actives 0.49% (n = 340,000); in the data active means activity change below about -65%; inconclusive means about -30% to -65%; inactive means above about -30%; note: % is set by controls: 0 for no effect and ±100 for the full control effect; compound concentration not given in the record
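In 5 uL wells, 23 nL compound meets equimolar GST-E1A and His-CtBP (5X stock 125 nM each) for 2 h, 37 °C. Beads (5X, 50 ug/mL) then 1 h, 37 °C, dark.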
Six1-Eya2 blk: Six1/Eya2 interaction inhibition | Q15475+O00167 | AlphaScreen GST-Six1/His-Eya2 binding, biochemical; hits give low values; control for the full effect not named in the record | activity change, % (test concentration not listed) | actives 0.56% (n = 360,000); in the data active = activity change below about -65%; inconclusive = about -30% to -65%; inactive = above about -30%; note: % is set by controls: 0 for no effect and ±100 for the full control effect; compound concentration not given in the record
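Six1/Eya2 binding was read as AlphaScreen signal after compounds were pinned into GST-Six1 plus His-tagged Eya2 (5X stock 250/500 nM) in pH 8.0 Tris/NaCl/TCEP buffer, beads added, then incubated 1 h, 37 C, dark.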
D2 agonist: human D2 receptor agonism in beta-arrestin assay; P14416; activation, % (concentration not given with the values); actives 0.084% (n = 360,000); DiscoveRx PathHunter D2 beta-arrestin, luminescence, 90 min; 100% = 57 uM dopamine signal; in the data active = activation above about 40%; inconclusive = about 15% to 40%; inactive = below about 15%; note: compound concentration not given in the record; the text of the record calls up to 30% inactive
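Agonist mode: compounds alone added to overnight-plated D2 PathHunter cells for 90 min at 37 C, with 57 uM final dopamine (EC100) defining full response. Beta-arrestin recruitment detected by chemiluminescent reagent, read after 1 h at ambient temperature.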
TRPML1 blocker: human mucolipin-1 channel inhibition; AID 624415; actives 0.02% (n = 390,000); activity change, negative = inhibition, % (concentration not given with the values); TRPML1-inducible cells, Ca2+ dye fluorescence, FDSS; hits give low values; inhibition of EC80 agonist-evoked calcium signal; in the data active means activity change below about -50%; inconclusive means about -30% to -50%; inactive means above about -30%;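 note: stimulus is agonist 54-4 at its EC80 concentration; % is set by controls: 0 for no effect and ±100 for the full control effect; compound concentration not given in the record; the text of the record puts the active cut at -80%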
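Calcium fluorescence in TRPML1-DL cells induced overnight with Tet: a 110 s read after compound pin addition, then a 110 s antagonist read after challenge with 54-4 at 4 uM final (EC80).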
* = called active by the depositor; ? = inconclusive; . = no result given; [ ] = remark or other dose.

Compound	D2 agonist	PINK1 modulator	Six1-Eya2 blk	TRPML1 blocker	CtBP-E1A inh	TRPML1 agonist
Cc1nc(SCC(=O)Nc2c(C)n(C)n(-c3ccccc3)c2=O)[nH]c(=O)c1Cc1ccccc1	-3.3	.	4	2	9	-0.1
O=C(OCc1cncs1)c1ccccc1	-1.6	0.0%	-9	-3	14	-0.3
Cc1ccc(CC(=O)N2CC(C)OC(C)C2)cc1 (stereo not drawn)	-0.2	-0.2%	5	7	2	-0.4
Cc1nnc(N2C(=O)c3oc4ccccc4c(=O)c3C2c2ccco2)s1 (stereo not drawn)	6.6	1.7%	?	2	-28	1.4
CC(/C=N/NC(=O)c1nnn(-c2nonc2N)c1C(C)C)=C\c1ccccc1	1.1	30%	11	-12	.	1.2
O=C(CCOc1ccccc1)N(Cc1cccnc1)c1nc2ccc(Cl)cc2s1	.	7.2%	.	16	.	-0.3
COc1ccc(C(=O)Nc2cccc(-c3csc(C)n3)c2)cc1S(=O)(=O)N1CCCC1	7.5	-0.2%	?	5	.	1.5
CCC(=O)N(C)C[C@@H]1Oc2ncc(Br)cc2C(=O)N([C@@H](C)CO)C[C@H]1C	0.4	1.4%	-1	.	-3	.
CCOC(=O)CNC(=O)c1ccc(Br)s1	3.2	-0.7%	2	.	-2	.
CCCOc1ccc(F)cc1-c1cc(C(=O)NCc2cc(C(F)(F)F)cc(C(F)(F)F)c2)[nH]n1	7.2	1.9%	5	.	6	1.2
CNC(=S)N/N=C/c1cn(Cc2ccc(C)cc2)c2ccccc12	-3.3	3.6%	-29	60	22	2.1
COc1ccccc1-c1noc2ncnc(Nc3ccccc3C)c12	-2.9	-0.5%	0	10	-1	0.8
CC(=O)Oc1ccc(C23c4ccccc4C2(OC(C)=O)c2cc(OC(C)=O)ccc23)cc1 (stereo not drawn)	?	-0.1%	16	-2	27	1.6
CCn1c(SCC(=O)N/N=C/c2ccc(OC)c(OC)c2)nc2ccccc21	-0.1	4.6%[38.3 µM]	-11	6	-15	-1.0
CC(=O)N/N=C/c1c(C)[nH]n(-c2ccccc2)c1=O	-6.1	29%	-73*	28	-68*	-0.6
CCOc1ccc(CCNC(=O)c2ccc3c(=O)n4c(nc3c2)CCCCC4)cc1	0.5	2.0%	-1	16	-7	-0.9
Nc1nonc1C(=O)NCCNCc1ccccc1	-1.2	0.3%	8	6	-2	-0.2
CCc1cc(C(=O)c2ccccc2)c(N)s1	-0.3	2.8%	-10	3	-5	3.1
CCOC(=O)c1ccc(NC(=S)N2CCSC2c2ccc(Br)cc2)cc1 (stereo not drawn)	-3.7	1.1%	0	7	-2	16
Cc1nnsc1S(=O)(=O)Cc1ccccc1C(F)(F)F	-2.4	0.8%	0	4	6	-0.4
CS(=O)(=O)N(CC(=O)N1CCCCCC1)c1ccccc1	-1.4	1.0%	7	-1	4	-0.6
Nc1nc2c(ncn2-c2ccccc2)c(=O)[nH]1	0.9	0.6%	?	7	-73*	0.6
COc1cccc(CC(=O)Nc2c(C(=O)N3CCN(c4ccccc4F)CC3)oc3ccccc23)c1	.	2.7%	.	-3	.	0.6
CCNc1nc(NC(C)C)nc(OCC)n1	0.0	2.4%	14	14	-8	-0.5
C=C(C)c1cccc(C(C)(C)NC(=O)NCc2ccc(OC)c(OC)c2)c1	-1.4	8.6%[38.3 µM]	3	-12	6	0.2
Cc1cnc(CN(C)C(=O)CC2C(=O)NCCN2CCCc2ccccc2)[nH]1 (stereo not drawn)	-2.7	2.4%	0	26	-2	-0.5
CC(C)c1ccccc1OCCNC(=O)c1cncc(Br)c1	3.2	0.4%	-7	4	9	-0.6
O=C(Nc1ncc2c(n1)CC(c1ccco1)CC2=O)c1ccco1 (stereo not drawn)	2.5	-1.1%	1	10	3	-0.5
COc1ccc(NC(=O)CN(C)C(C)C(=O)N2CCCCC2)cc1 (stereo not drawn)	-0.7	-0.3%[38.3 µM]	5	9	-1	0.8
Cn1nc(C(=O)OCc2ccc(Br)cc2F)c2ccccc2c1=O	0.8	0.9%	7	-8	3	0.2
O=C(Nc1nc2ccccc2[nH]1)C1CCN(S(=O)(=O)c2cccs2)CC1	-0.5	9.0%	8	-18	-7	0.7
CSCCC(NC(=O)CCNC(=O)c1ccccc1Cl)c1nc2ccccc2[nH]1 (stereo not drawn)	-4.7	-0.2%	0	8	9	0.9
Cc1ccc(NC(=O)c2sc3nc(N4CCOCC4)c4c(c3c2N)CC(C)(C)OC4)cc1	-4.3	0.8%	2	22	7	0.0
CCN(CC(=O)Nc1c(F)cccc1F)C(=O)CSCc1ccc(C)cc1	-1.4	0.6%	5	-5	-3	-0.2
CC1CCN(C(=O)CN(Cc2ccc(F)cc2)S(C)(=O)=O)CC1	6.2	2.0%	3	-10	4	0.1
CC[C@@]1(C(=O)OC)N[C@H](CN(C)C(=O)Nc2ccc(F)cc2)[C@@H]2C(=O)N(Cc3ccccc3)C(=O)[C@@H]21	1.5	-1.5%	3	-1	-1	-0.2
O=C(NC1CCCCC1)c1sc(N2CCOCC2)nc1-c1ccccc1	1.8	1.3%	1	11	8	-0.7
COc1ccc(Cc2c(-c3cccc(Br)c3)nc3c(C)cc(Br)cn23)c(C)c1	-4.2	0.9%	-3	.	-3	-0.5
COc1ccc(OCCNC(=O)/C=C/c2ccccc2)cc1	-3.1	-0.3%	2	-6	-8	0.9
O=C(O)CCC(=O)N1N=C(c2cccs2)CC1c1cn(-c2ccccc2)nc1-c1ccccc1 (stereo not drawn)	-5.6	-1.3%	-11	-1	-3	-0.1
O=C(c1ccc(C(F)(F)F)cc1)N1CCC(c2noc(-c3ccc(S(=O)(=O)N4CCCC4)cc3)n2)CC1	.	0.0%	.	23	.	0.0
O=C(NC(c1ccc(Cl)cc1)c1cnccn1)C1CCN(Cc2cccc(C(F)(F)F)c2)CC1 (stereo not drawn)	-7.1	1.9%	-9	.	-2	-0.1
CC1CCN(C(=O)c2ccc3c(=O)n4c(nc3c2)CCCCC4)CC1	-4.2	0.2%	20	-8	3	-0.7
COC(=O)c1ccc(NC(=O)CN2C(=O)NC3(CCC(C)CC3)C2=O)cc1 (stereo not drawn)	6.8	7.6%	9	-2	2	-0.7
CC1CCN(C(=O)C2COc3ccccc3O2)CC1 (stereo not drawn)	1.8	0.4%	-2	-4	7	-0.5
CCOC(=O)C1=C(C)N(Cc2ccccc2)C(=O)NC1c1ccccc1OS(=O)(=O)c1ccccc1[N+](=O)[O-] (stereo not drawn)	5.2	2.2%	-12	5	-11	-0.7
Cc1cccc2cc(COC(=O)c3ccco3)c(=O)[nH]c12	-1.2	0.8%	-1	-19	3	-0.6
COc1ccc(OC)c(-c2nnc(SCC(=O)N3CCCC3)o2)c1	0.6	-0.3%	5	62	6	-0.3
CCC(CC)N1CCN(Cc2nc3ccc([N+](=O)[O-])cc3c(=O)n2-c2ccccc2F)CC1	5.6	1.7%	16	23	3	-0.2
CC(C)CCn1nnnc1C(c1ccc(F)cc1)N1CCC(C(N)=O)CC1 (stereo not drawn)	2.0	-1.5%	5	-8	6	0.4
CCCCCC(=O)Nc1cccc(C2=NOC3(C2)C[C@@H](C(N)=O)N(C(=O)c2ccc(OC)cc2)C3)c1 (stereo partly drawn)	2.1	0.4%	-3	-8	-12	-0.6
COc1ccc(/C=C/c2nc3ccccc3n2Cc2ccccc2OC)cc1	-3.1	?	31	40	27	4.1
Cc1ccccc1CN1CCN(CC(=O)NCc2ccccn2)C1=O	-4.6	0.8%	-5	25	-3	-0.4
O=C1CC(NS(=O)(=O)c2ccccc2)CN1c1ccc2c(c1)OCCO2 (stereo not drawn)	5.4	-2.6%	3	-1	4	0.1
Cc1ccc(NC(=O)CCNS(=O)(=O)c2ccc3c(c2)CCC(=O)N3)c(Br)c1	4.5	0.0%	2	-11	1	-0.1
Cc1ccc(CNc2ccc3c(c2)ncn3C(C)C)cc1	-1.8	2.4%	2	6	.	3.1

Reprinted at random: five entries already listed, in no set order.
Compound	D2 agonist	PINK1 modulator	Six1-Eya2 blk	TRPML1 blocker	CtBP-E1A inh	TRPML1 agonist
CNC(=S)N/N=C/c1cn(Cc2ccc(C)cc2)c2ccccc12	-3.3	3.6%	-29	60	22	2.1
CCOC(=O)c1ccc(NC(=S)N2CCSC2c2ccc(Br)cc2)cc1 (stereo not drawn)	-3.7	1.1%	0	7	-2	16
O=C1CC(NS(=O)(=O)c2ccccc2)CN1c1ccc2c(c1)OCCO2 (stereo not drawn)	5.4	-2.6%	3	-1	4	0.1
O=C(NC1CCCCC1)c1sc(N2CCOCC2)nc1-c1ccccc1	1.8	1.3%	1	11	8	-0.7
COc1ccc(NC(=O)CN(C)C(C)C(=O)N2CCCCC2)cc1 (stereo not drawn)	-0.7	-0.3%[38.3 µM]	5	9	-1	0.8

Additional entries
Compound	D2 agonist	PINK1 modulator	Six1-Eya2 blk	TRPML1 blocker	CtBP-E1A inh	TRPML1 agonist
CCC(=O)N1CCc2cc(S(=O)(=O)NCCC(=O)NC3CCCc4ccccc43)ccc21 (stereo not drawn)	-1.4	-1.4%	-12	-4	-16	2.5
Cc1cccc(NC(=O)CSCC(=O)N(C)Cc2ccc3c(c2)OCCO3)c1	-1.9	-3.2%	1	14	-9	1.6
Cc1nc2cc(Cl)c(Cl)cc2nc1C	-4.6	-1.7%	2	-17	4	-0.4
COc1ccc2c(c1)NC(c1ccc(OCC(C)C)cc1)=NC(c1ccncc1)=N2	.	4.0%	.	6	.	-0.8
O=C(Cn1c(=O)nc(-c2ccccc2)c2ccccc21)Nc1cccc(C(F)(F)F)c1	.	-0.7%	.	-9	.	2.4
Cc1ccccc1Cn1nc(C)c(NC(=O)c2cc(-c3ccco3)on2)c1C	8.3	7.8%	-4	35	.	0.9
